# UUG fidelity – alters start codon recognition fidelity in yeast; activity score, % at 18.7 µM; 350,000 tested, 0.13% active; S. cerevisiae UUG-firefly luciferase reporter, luminescence/redox ratio;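 active means replicate mean at a twofold rise or more, about +100% in these data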;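 further: firefly luciferase made from a UUG start codon reports start codon fidelity; reporter light over untreated wells divided by growth signal over untreated wells; some hits fall short of that in this replicate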
# MT1-MMP act inh – inhibitors of human MT1-MMP activation | P50281 | GFP/RFP ratio change, % at 20 µM | HT1080 RFP-PRO-GFP cells, GFP/RFP ratio fluorescence, overnight; percent of plate control window, DMSO zero | 360,000 tested, 0.061% active;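 active means GFP/RFP ratio change of at least 30% with cell ATP level not reduced by more than half and red fluorescence within 50% of control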; further: strong numbers were not always called active
#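 Material: RFP-PRO-GFP reporter HT1080 cells. Dosing: single-point 20 µM compound, 1% DMSO. Controls: DMSO and RFP-L50D-GFP cell wells. Timing: cells overnight before dosing, compound overnight, 37 °C, 5% CO2. Measure: GFP/RFP fluorescence ratio.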
# HIV Env fusion – HIV envelope-mediated fusion inhibition; HeLa-JRFL Env/CEM21 cell fusion, luciferase; inhibition, % at 12.3 µM; 360,000 tested, 1.1% active;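 active means mean replicate inhibition score of at least 50 and every replicate individually at or above 50; inconclusive means only one of the two criteria met; inactive means mean below 50 and not all replicates reaching 50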;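 further: 0% = plate neutral controls and 100% = maraviroc near 300 nM; one replicate is shown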
# PABP FP inh – PABP-poly(A) binding inhibition; P11940; PABP-poly(A) RNA binding, fluorescence polarization; inhibition, % at 35 µM; 290,000 tested, 1% active; AID 2014;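 active means 50% or more with normal probe brightness, or confirmed in later tests; inconclusive means above 50% with abnormal brightness, or retests that disagree; inactive means below 50% or failed in later tests; about a fifth of its hits are not listed in these tables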;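 further: calls also rest on retests at 20 µM and on dose response follow-up; controls were probe without protein and protein plus probe with vehicle; some compounds called inactive have numbers as strong as hits; many hits fall short of the cut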
# eIF4H FP inh – inhibitors of RNA binding by human eIF4H | inhibition, % at 35 µM | Q15056 | 290,000 tested, 0.94% active | eIF4H fluorescence polarization binding assay;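 active means 50% or more with normal probe brightness, or confirmed in later tests; inconclusive means above 50% with abnormal brightness, or retests that disagree; inactive means below 50% or failed in later tests; about a fifth of its hits are not listed in these tables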;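 further: calls also rest on retests at 20 µM and on dose response follow-up; 0% = protein and probe with vehicle and 100% = probe without protein; strong numbers were not always called active; many hits fall short of the cut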
# CSC inhib – blocks cancer stem cells; inhibition, % at 7.5 µM; 300,000 tested, 1.1% active; cancer stem cell-like cells viability, luminescence;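 active means mean at 75% or more and at least half the replicates too; inconclusive means mean and replicates disagree; tested in HMLE shEcad cells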;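 further: 0% = median of negative and 100% = median of positive control wells; the first replicate is given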
# Rce1 inhib – inhibitors of yeast Ras-converting enzyme; yeast membranes, quenched prenylated peptide cleavage fluorescence; AID 2563; 290,000 tested, 0.27% active; calls only;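 active means fall in fluorescence gain of 50% or more versus controls, with final raw signal at or below 3038400; inconclusive means same 50% fall but final raw signal above 3038400; inactive means fall in fluorescence gain under 50%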;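 further: plate controls were neutral control wells for no effect and wells lacking membranes for full effect; tested at 10 µM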
# Target sequence (Q03530 whole entry, looked up): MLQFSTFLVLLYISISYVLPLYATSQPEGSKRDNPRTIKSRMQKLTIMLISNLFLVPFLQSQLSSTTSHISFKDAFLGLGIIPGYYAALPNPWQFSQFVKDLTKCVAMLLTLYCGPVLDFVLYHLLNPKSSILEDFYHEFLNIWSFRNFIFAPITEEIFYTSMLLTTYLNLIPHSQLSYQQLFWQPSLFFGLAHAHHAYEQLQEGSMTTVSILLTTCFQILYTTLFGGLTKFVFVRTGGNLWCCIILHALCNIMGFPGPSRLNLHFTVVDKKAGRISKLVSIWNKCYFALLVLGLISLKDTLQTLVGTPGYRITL
# eIF4H FP inh retest – second read-out of eIF4H FP inh, no call of its own (marks repeat the call); inhibition, %; compound at 20 µM; confirmation average;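 mean of two retest wells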
# PABP FP inh retest – second read-out of PABP FP inh, no call of its own (marks repeat the call); inhibition, %; compound at 20 µM; confirmation repeats;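 mean of two retest wells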
# MT1-MMP act inh RFP – also measured in MT1-MMP act inh; calls as there; RFP signal change, %; measured here: RFP expression control read;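 0 = vehicle wells; hits needed this value within 50% of zero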
# Numbers without * were called inactive; i = inactive; ? = inconclusive; . = no result given; + = active, no number.
SMILES,UUG fidelity,MT1-MMP act inh,MT1-MMP act inh RFP,HIV Env fusion,PABP FP inh,eIF4H FP inh,CSC inhib,Rce1 inhib,others
COc1ccc(C(=O)N/C(=C/c2ccc(Cl)cc2)C(=O)Nc2ccc(C(=O)O)cc2)cc1,-20,-4,-5,-87,1,-6,-9,i,
CCn1c(NC(=O)c2nn(C)cc2Br)nc2ccccc21,.,9,4,-4,4,-2,28,i,
Cc1ccc(S(=O)(=O)N2CCOCC2)cc1NC(=O)CNCc1ccc(Cl)cc1Cl,16,3,-13,-7,.,.,-10,.,
COc1ccc(N2CCC(CNC(=S)Nc3cccc(OC)c3)C2)cc1 (stereo unspecified),.,.,.,.,-7,1,3,i,
CCN(CC(=O)Nc1ccccc1OC)C(=O)CC1CCCC1,-3,4,1,4,.,.,-15,.,
CCN(C(=O)CSc1nnc(-c2ccncc2)o1)c1ccccc1,1,-8,-3,0,-2,-14,-13,i,
COC(=O)c1ccc(-c2ccc(CNCC(O)c3ccccc3)o2)cc1 (stereo unspecified),-8,-9,-7,.,6,-7,11,+,
Cn1cccc1C(=O)NC(=O)COC(=O)c1ccc(O)cc1,-19,-1,5,.,-2,2,19,i,
COc1nccnc1NS(=O)(=O)c1ccc(NC(=O)c2ccc(F)cc2)cc1,-26,-3,-6,-5,6,-3,-3,i,
Cc1ccc2c(c1)C(O)(CC(=O)c1cccnc1)C(=O)N2 (stereo unspecified),-10,0,6,.,-6,-4,8,i,
O=C(COC(=O)c1nc(Cl)ccc1Cl)NNC(=O)c1cccs1,-10,1,6,.,.,.,.,i,
CN(C(=O)c1ccc(NC(=O)C2CC=CCC2C(=O)O)cc1)c1ccccc1 (stereo unspecified),11,-1,4,-15,2,-2,-1,.,
O=C(CC1(O)C(=O)Nc2cc(Cl)cc(Cl)c21)c1ccccc1O (stereo unspecified),11,8,3,.,-1,-10,19,i,
CCOCCn1c(N2CCN(c3ccc(OC)cc3)CC2)nc2c1c(=O)n(C)c(=O)n2C,-23,3,-3,.,7,2,0,i,
Cc1c(Cl)cccc1NC(=O)Nc1cc(C(C)(C)C)on1,7,-2,-6,30,5,-6,.,i,
CCOC(=O)/C=C1\SCC(=O)N1CC(=O)NC(c1ccccc1)c1ccccc1,-2,-6,-4,-12,8,4,11,i,
CN(C)CCCNC(=O)C(=O)NCC1OCCN1S(=O)(=O)c1cc(F)ccc1F (stereo unspecified),9,-4,3,3,14,6,1,i,
CC(C)C[C@H](CO)N(Cc1ccccc1)S(=O)(=O)N(Cc1ccccc1)[C@@H](CO)CC(C)C,-8,-25,-20,109*,.,.,107*,.,
COc1cccc(C2=NN(C(=O)c3ccc(C)o3)C(O)(C(F)(F)F)C2)c1 (stereo unspecified),.,1,-5,-24,-6,-18,-9,i,
CCn1nnnc1-c1ccc(OC)c(S(=O)(=O)Nc2ccc(C)c(C)c2)c1,.,-3,-2,16,-8,1,-35,i,
Cc1nnc(SCc2cc(=O)[nH]c(=S)[nH]2)s1,.,-1,4,-11,0,-3,5,i,
CCn1c(SCC(=O)NC2CCCc3ccccc32)nnc1-c1cccs1 (stereo unspecified),-10,0,-2,.,-8,-7,-12,i,
CCOc1ccc(NC(=O)c2c(NC(=O)CN3CCCC3)sc3c2CCC3)cc1,-12,0,-2,0,-17,-5,-5,i,
COc1ccc(-c2cc(C(=O)OCC(=O)NC(C)(C)C)c3ccccc3n2)cc1,.,5,3,.,13,5,0,i,
COC(=O)c1cc(S(=O)(=O)NCc2ccc(F)cc2)cn1C,-9,1,1,13,12,-10,.,i,
Cn1c(CC(=O)Nc2ccc(Cl)c(Cl)c2)n[nH]c1=S,-7,1,2,4,2,-2,7,i,
COc1ccccc1N1CCN(c2nc3ccccn3c(=O)c2C=O)CC1,-5,-6,-1,-5,-4,-1,-5,i,
CCOC(=O)c1nnc(-c2ccc(C)cc2)nc1N1CCSCC1,.,-4,-4,?,-3,-14,-14,i,
CC(C)(C)S(=O)(=O)c1cnc(N2CCCC2)nc1N,.,4,2,-10,-12,-6,-14,i,
C/C(=N\NC(=O)c1cccc2ccccc12)c1ccccn1,-11,7,-6,19,4,6,.,i,
O=C(Sc1nnc(-c2ccccc2)o1)N1c2ccccc2Sc2ccccc21,-23,5,-1,2,-1,6,.,i,
COc1ccc(C(=O)c2coc(-c3ccccc3C(=O)O)c2C(=O)O)cc1,-21,-4,3,-7,-5,1,-5,i,
CCc1cc2c(-c3ccccc3)cc(=O)oc2cc1OCC(=O)NCC1CCC(C(=O)O)CC1 (stereo unspecified),-14,4,2,.,8,-8,-4,i,
COCCCNc1ccc([N+](=O)[O-])cc1C(=O)Nc1cccc(C)n1,.,3,3,-15,1,8,-16,i,
O=C(O)c1ccc(NC(=O)c2ccco2)c(NC(=O)c2ccco2)c1,-7,-1,1,-5,-6,5,.,i,
O=c1c2ccccc2nc(SCc2ccccc2)n1CC1CCCO1 (stereo unspecified),.,0,-3,35,38,38,-5,i,
COC(=O)c1cccc(CSc2nc3ccccc3[nH]2)c1,-15,0,-11,33,4,-3,29,i,
O=S1(=O)CC2SC(=S)N(c3ccccc3)C2C1 (stereo unspecified),-14,2,1,14,-8,-2,-14,i,
CC(C)(C)c1ccccc1OCC(=O)NCCCn1ccnc1,-16,1,5,-4,-7,1,15,i,
O=C(CSc1nnc2ccc3ccccc3n12)N1CCOCC1,-14,10,10,-17,9,-2,3,i,
O=C(NCCc1c[nH]c2ccccc12)C1CCN(c2nnc(N3CCCC3=O)s2)CC1,5,5,1,.,2,-7,-10,.,
O=C(c1cc(Cl)ccc1O)N1CCN(S(=O)(=O)c2cccs2)CC1,.,0,2,-55,.,.,-14,i,
Cc1ccc(NC(=O)CCn2nnc3ccccc32)cc1,.,-1,-2,-10,5,-4,-4,i,
COc1ccc(C/C(C)=N/NC(=O)C2COc3ccccc3O2)cc1 (stereo unspecified),.,2,5,-16,0,-10,1,i,
Cc1ccccc1-n1nnnc1Sc1nnnn1-c1ccccc1,-26,-7,-9,.,23,6,19,.,
COc1ccc(-c2nn(-c3ccccc3)cc2/C=C/C(=O)OCC(=O)Nc2cccc(C#N)c2)cc1,.,1,0,2,42,1,32,i,
CCOc1ccccc1-n1nnnc1SCc1nc2ccccc2s1,-19,-7,-4,-17,0,-1,4,i,
O=C(O)Cc1sc(-c2cccnc2)nc1-c1ccc(Br)cc1,.,1,1,-8,2,4,6,i,
CCN(CC)c1ccc(NC(=O)Cn2cc3c(n2)CCC(C)C3)c(C)c1 (stereo unspecified),2,3,3,-4,-4,5,10,i,
CC1CCN(C(=O)c2ccc(N3CCOCC3)c([N+](=O)[O-])c2)CC1,12,4,4,11,.,.,2,.,
O=C(NCC1CC1)Nc1cccc(C(F)(F)F)c1,-9,-2,-1,20,1,-6,-6,i,
COc1ccccc1N1CCN(S(=O)(=O)CCNC(=O)C(C)Oc2ccccc2)CC1 (stereo unspecified),-8,1,3,0,.,.,.,.,
Cn1c(=O)c2c(nc(NCCNC(=O)c3ccco3)n2Cc2ccccc2F)n(C)c1=O,-16,3,-2,1,8,2,-7,i,
COc1ccc2c(c1)cc(C(=O)N[C@@H](Cc1ccccc1)C(=O)N[C@@H](C)C(=O)O)n2C,-13,-3,-1,-1,-1,2,-2,i,
Cc1ccc(-n2c(SCC(=O)OC(C)C)nnc2-c2cnccn2)cc1,-21,-2,4,-86,6,4,-9,i,
COc1ccc(OCC(=O)NCCc2c[nH]c3ccccc23)cc1,.,0,-1,-8,0,-1,16,i,
COc1cc(CN2CC(=O)N(c3ccc(C)cc3)C2=S)cc(OC)c1OC,.,0,-5,.,-1,-16,-6,i,
CCCNC(=O)c1ccccc1NC(=O)c1ccccc1SC,.,-1,0,-7,-1,3,-11,i,
C=CCn1c(C)cc(C(=O)CN2C(=O)c3ccccc3C2=O)c1C,-23,6,2,-44,-2,-2,3,i,
CCCCC(=O)Nc1cccc(-c2csc(-c3ccccc3)n2)c1,.,3,-4,-8,-7,-6,68,i,

# Additional records follow.
SMILES,UUG fidelity,MT1-MMP act inh,MT1-MMP act inh RFP,HIV Env fusion,PABP FP inh,eIF4H FP inh,CSC inhib,Rce1 inhib,others
CN(C)CCCC(C)(O)C(C)(C)c1ccccc1 (stereo unspecified),-19,-4,2,.,10,1,-12,i,
CN1C(=O)NC(c2cccc(O)c2)C(C(=O)c2cccs2)C1(O)C(F)(F)F (stereo unspecified),-23,0,0,.,5,-12,-4,i,
CSc1ccccc1NC(=S)NC1CCCCC1,-32,1,5,-3,12,-5,-23,i,
O=C(CN1CCN(Cc2ccccc2)CC1)NCCNc1ccc([N+](=O)[O-])cn1,-13,-8,-3,-8,-3,108,5,i,eIF4H FP inh retest=-8;PABP FP inh retest=14
CCOc1ccc2oc(C(=O)NCC(C)(C)CN(C)C)c(C)c2c1,.,-1,-2,2,-1,2,0,i,
NC(N)=NCCCC(NC(=O)c1ccccc1)C(=O)Nc1ccc2ccccc2c1 (stereo unspecified),-7,0,1,-5,.,.,-3,.,
O=C(CN1C(=O)c2ccccc2S1(=O)=O)NCc1ccco1,.,-4,-3,9,-9,-9,-7,i,
COc1ccc(Cn2c(-c3ccc(C)cc3)nc3c(c(=O)c4ccccc4n3C)c2=O)cc1,.,-2,-7,-23,3,-2,12,i,
COC(=O)c1ccc(NCC(=O)N2CCCCCC2)cc1,.,.,.,.,-4,4,1,i,
CC(C)(C)c1ccc(CC(=O)N2CCC2(C)C(=O)NS(=O)(=O)c2cccc(F)c2)cc1 (stereo unspecified),1,-2,-1,8,.,.,.,.,
Cc1nn(CC(=O)NCc2cc3ccccc3[nH]2)c(C)c1[N+](=O)[O-],.,-5,2,-1,5,2,-7,i,
COc1ccc(S(=O)(=O)NN=C2CCCCC2)cc1,-11,2,3,-43,-3,-6,.,i,
Cn1c(NCc2ccccc2)nc2c1c(=O)n(Cc1ccc(Br)cc1)c(=O)n2C,-6,2,-6,.,-2,-4,2,i,
COc1ccc(C)cc1Nc1nc(C)nc2sc(C)cc12,-16,-7,-4,15,2,-11,47,i,
CC(C)N(Cc1nc(-c2ccc3c(c2)OCO3)no1)CC1CCC(=O)N1 (stereo unspecified),-8,-2,-4,-3,-11,0,5,i,

# Compound activity deposited in PubChem BioAssay by several laboratories.
